From PubChem
ugtP null kill – compounds lethal to S. aureus RN4220 ugtP deletion mutant | OD600 growth, 16 h; some inactives read as strong as hits | growth inhibition, % (concentration not given with the values) | 330,000 compounds, 0.54% hits;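 active = z-score under -3 and OD600 up to 0.15 on both plates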;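 note: plate controls were untreated wells for no effect and antibiotic for full effect; wells of about 80 µL received 100 nL stock; the first replicate is given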
BJeLR viability – BJeLR cell viability loss; BJeLR (HRASV12) viability, CellTiter-Glo ATP luminescence, 48 h; reference of the scale not given here; inhibition, % (concentration not given with the values); AID 1554; 300,000 compounds, 0.17% hits;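 active = replicate mean above 50%; inconclusive = above 50% but judged a plate artefact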;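 note: 50 nL library stock added to about 25 µL; numbers are from one replicate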
RN4220 kill – S. aureus RN4220 growth inhibition; OD600, 16 h; inhibition, % (concentration not given with the values); 330,000 compounds, 0.33% hits; AID 1259311;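 active = z-score of -3 or lower and OD600 up to 0.18 on both plates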;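 note: plate controls were untreated cells for no effect and reference antibiotic for full effect; stock transfer was 100 nL into about 80 µL; one replicate is shown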
Mtb hypoxia inh – inhibitors of hypoxia-regulated fluorescent reporter in Mycobacterium tuberculosis; M. tuberculosis hypoxia-regulated fluorescent reporter, fluorescence; AID 1159583; 300,000 compounds, 0.1% hits; fluorescence inhibition, % (test concentration not listed);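 active = 35 to 45% if threefold the growth effect, above 45% if 1.5-fold the growth effect; inactive = the rest, general growth blockers included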;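 note: wells of about 50 µL received 100 nL stock; 0% = vehicle wells and 100% = reference inhibitor wells; whole bacteria with a GFP reporter of the hypoxia response; strong numbers were not always called active; many hits fall short of the cut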
PrP 5UTR inh – suppresses PrP 5' UTR mRNA reporter expression | cell-based PrP 5' UTR mRNA reporter, plate reader | inhibition, % (test concentration not listed) | 340,000 compounds, 0.35% hits;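 active = every replicate at 50% or more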;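 note: 0 = median of the neutral control wells; tested in H4 reporter cells; numbers are from one replicate; inactives centre near -14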
Autofluor counter – compound fluorescence in toxin protease inhibitor counterscreen | 360,000 compounds, 3.1% hits | compound autofluorescence counterscreen, microsphere flow cytometry; stronger effect = higher value | fluorescence intensity (no concentration beside the values) | AID 624483;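 active = at least 3 SD above the mean of all compounds, about 16000 in these data; inconclusive = too few beads counted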;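 note: 100 nL of 1 mM stock went into each well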
Mtb hypoxia inh growth – further read-out of Mtb hypoxia inh, marked with its call; growth inhibition, %; measured here: M. tuberculosis growth (absorbance);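 0% = vehicle and 100% = reference antibiotic; read after six days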
An asterisk follows results filed as active; ? = inconclusive; / = not tested or not shown. Outcome played no part in choosing rows; about 4% have a hit in one of these screens.

no.	mol	ugtP null kill	BJeLR viability	RN4220 kill	Mtb hypoxia inh	Mtb hypoxia inh growth	PrP 5UTR inh	Autofluor counter
1	COc1cccc(C=NNC(=O)CNC(=O)c2ccco2)c1O	1	/	-0.6	-3	2	/	/
2	CCOC(=O)N1CCN(C(=O)c2ccccc2CCc2ccccc2)CC1	4	-1	11	/	/	0	/
3	C/C(=C\C(=O)Nc1cc(C)on1)c1ccccc1	-3	22	1.7	6	15	-65	22891*
4	COc1cc(C)c(S(=O)(=O)N2CCN=C2c2ccccc2)cc1C	/	1	/	/	/	-13	2399
5	CSc1ccccc1NC(=O)CN(C)CC(=O)Nc1cccc(Br)c1	9	/	-5.9	14	5	38	4219
6	Cc1ccc(C)c(NC(NC(=O)c2ccccn2)C(Cl)(Cl)Cl)c1 (stereo not given)	-2	-1	4.4	13	0	-10	3232
7	O=C(CSc1nc(=O)n2ccccc2n1)N1CCCCCC1	1	9	-0.1	7	0	-19	/
8	CCc1ccccc1NC(=O)CN(c1cccc(OC)c1)S(C)(=O)=O	-1	2	0.6	-5	-3	-21	3082
9	C=CCn1c(Cc2c(C)[nH]c3ccccc23)nnc1SCC(=O)NCc1ccc(F)cc1	-13	-3	6.7	/	/	-38	5505
10	CC(=O)N1CC(C)Sc2ccc(S(=O)(=O)NCc3ccc(Cl)cc3)cc21 (stereo not given)	-2	0	8.7	10	9	-21	5215
11	O=c1[nH]n(-c2ccccc2)c(=O)c2ccccc12	-8	/	-1.5	-5	1	5	4310
12	Cc1cc(C)n(Cc2cnc(N3CCOCC3)s2)n1	3	1	-2.6	9	-6	-23	5344
13	Cc1nc(C)c(C(=O)C2=C(O)C(=O)N(CCN(C)C)C2c2ccco2)s1 (stereo not given)	10	-6	2.7	4	3	-21	5966
14	COc1ccc2cc(C3(C)NC(=O)N(CC(=O)NCCC4=CCCCC4)C3=O)ccc2c1 (stereo not given)	4	-2	3.3	22	7	-5	?
15	O=Cc1ccc(OCCCOc2cccc3cccnc23)cc1	-10	6	2.5	-6	-3	-7	3889
16	COC(=O)c1cc(NC(=O)c2ccco2)ccc1N1CCOCC1	3	-3	1.0	0	10	-22	3121
17	CCCCN1Cc2cc(C(=O)c3cc(OC)ccc3O)cnc2NC1=O	6	4	-5.3	/	/	-18	3826
18	COc1ccc(CCC(=O)OCC(=O)c2ccc(C)cc2)cc1	18	-4	1.9	15	9	-13	7296
19	COc1ccc(C2C(C(=O)Nc3ccccc3OC)=C(C)Nc3ncnn32)cc1 (stereo not given)	2	-16	3.8	/	/	-4	4701
20	CCc1nc2ccccc2n1Cc1ccc(F)cc1	5	-3	13	-5	-10	-25	4189
21	Cc1cccc(NC(=O)COC(=O)CCCC2=NS(=O)(=O)c3ccccc3N2)c1	9	3	-0.3	1	5	-32	5220
22	CCOC(=O)c1cc2occc2n1CC(=O)NCCOC	4	2	6.6	-1	7	-17	2977
23	CCOC(=O)C1=C(Nc2ccc(OC)cc2)OCC1=O	0	-7	1.2	-8	-2	-26	5206
24	O=C(COc1ccc2ccc(=O)oc2c1)NC1CCS(=O)(=O)C1 (stereo not given)	-1	/	-1.0	9	3	/	3574
25	CCSc1nnc(-c2ccccc2N=Cc2c(C)[nH]n(-c3ccccc3)c2=O)c(=O)[nH]1	10	1	10	16	9	-2	2371
26	CC(C)Nc1ncnc2c1cnn2-c1ccc(Cl)cc1	13	-4	0.8	3	10	-1	5215
27	COc1ccc(OC)c(CN2CCN(c3ccccc3OC)CC2)c1	0	-4	0.4	4	17	8	9685
28	COc1ccc(S(=O)(=O)N(CC(=O)N2CCOCC2)c2ccc(F)cc2)cc1OC	12	13	3.2	5	0	-16	5559
29	CCOc1cc(CNCCc2ccc(S(N)(=O)=O)cc2)cc(Cl)c1OCc1ccccc1	-29	-3	-6.6	-5	24	-7	11121
30	N#Cc1ccc(COC(=O)C2CC(=O)N(CCc3ccccc3)C2)cc1 (stereo not given)	6	/	5.2	0	2	-32	5362
31	O=C(CCCNC(=O)C(=Cc1ccc(F)cc1)NC(=O)c1ccccc1)OCc1ccccc1	14	/	8.8	1	10	/	/
32	Cc1ccc(S(=O)(=O)N2CCCc3cc(NC(=O)c4c(F)cccc4F)ccc32)cc1	8	8	-3.0	4	-2	-7	4329
33	CCN(CC)C(=O)COc1c(-c2ccco2)oc2ccccc2c1=O	3	-12	-0.5	3	5	-6	3111
34	Cc1cc(/C=C2/C(=O)N(C)C(=S)N2C)c(C)n1C1CC1	0	0	11	8	2	-107	2602
35	NC(=Nc1ccc(N)cc1)C(N)=Nc1ccc(N)cc1	/	-4	/	/	/	1	2264
36	CN1CCCN(C(=O)c2cccc(Br)c2)CC1	-1	-8	-2.2	-2	16	-10	3840
37	Cc1cccc(Nc2nnc(C)c(=O)n2N)c1	5	9	4.2	0	5	-19	5781
38	COCCNc1cc(C)nc2cc(-c3ccc(C)cc3)nn12	4	0	2.6	-1	0	-3	5635
39	CC/C(=N\NC(=O)Nc1ccccc1)c1ccccc1	/	4	/	/	/	-30	7366
40	COCC(C)NS(=O)(=O)c1ccc(NC(=O)c2ccccn2)cc1 (stereo not given)	8	-2	2.6	10	13	-9	4601
41	O=C(CN1C(=O)c2ccccc2S1(=O)=O)NCCc1ccccc1	9	6	-0.2	-3	5	-9	4369
42	OCC(O)CSc1nc(-c2ccccc2)nc2c1CCC2 (stereo not given)	7	-21	2.4	-5	-9	-40	2373
43	O=S(=O)(Nc1nccs1)c1ccc(NS(=O)(=O)c2cccs2)cc1	-1	-7	7.5	2	14	-14	19362*
44	COc1cccc(NC(=O)CS(=O)(=O)Cc2nc(-c3ccc(C)cc3)oc2C)c1	0	10	3.0	-3	-3	-9	4378
45	Cc1ccc(S(=O)(=O)N=C(N)Nc2nc(C)c3cc(C)ccc3n2)cc1	-6	/	-3.7	1	4	/	/
46	O=C(CN(Cc1ccccc1)C(=O)CCC(=O)Nc1nccs1)NCC1CCCO1 (stereo not given)	-8	-5	-5.7	-1	-9	9	3212
47	O=C(CSc1nnc(-c2ccccn2)n1Cc1ccccc1)NC1CCCC1	10	26	-2.3	/	/	5	3443
48	Cc1nn(CC(=O)NCCN2CCOCC2)c(=O)c2ccccc12	0	/	-4.1	/	/	-1	3864
49	CCN(CC)C(=O)CSc1nnc(CCNC(=O)OC(C)(C)C)o1	-3	5	-5.0	-3	3	-12	23519*
50	NS(=O)(=O)c1cccc(NC(=O)CCCC2CCCCC2)c1	6	-2	4.7	-16	0	-8	5816

Continued.
no.	mol	ugtP null kill	BJeLR viability	RN4220 kill	Mtb hypoxia inh	Mtb hypoxia inh growth	PrP 5UTR inh	Autofluor counter
51	COc1ccc(C(C)=O)cc1CSc1ccc(S(=O)(=O)N2CCCCC2)cn1	15	/	8.1	4	2	-7	9068
52	C=CCn1c(SCC(=O)NCC(=O)OCC)nnc1-c1cccc(OC)c1	0	9	4.5	/	/	-12	3788
53	CC(=O)c1cc(C)ccc1OC(=O)CCN1C(=O)C2C3c4ccccc4C(c4ccccc43)C2C1=O (stereo not given)	-4	-9	4.0	-3	6	-32	11030
54	O=C(CC1SC(N2CCCCC2)=NC1=O)Nc1cccc(C(=O)NCc2ccccc2)c1 (stereo not given)	-2	/	3.4	5	7	-21	4389
55	O=C(Nc1cccc2ccccc12)c1cn(-c2ccccc2)nc1-c1cccs1	-5	-2	1.7	3	5	-8	8288
56	O=C1CN(C(=O)c2cnccn2)c2ccccc2N1	4	-6	4.6	8	3	-33	3607
57	Cc1noc(C(=O)NCc2cccnc2)c1Cl	16	2	5.3	2	-2	-63	5815
58	COC(=O)c1ccc2c(c1)NC(=O)c1ccccc1S2	2	-8	3.1	7	3	-2	3994
59	c1ccc2c(c1)ncn2CCCCOc1ccc2c(c1)CCC2	70	-3	4.1	7	14	-14	10757
60	O=C(COC(=O)Cc1ccc(F)cc1)NC1CCCC1	0	10	0.9	2	1	-9	6790
61	CCOC(=O)CC(C#N)c1c[nH]c2ccccc12 (stereo not given)	2	1	0.5	8	1	-1	3418
62	CC(=NO)c1ccc(N2C(=O)C3CC=C(Cl)CC3C2=O)cc1 (stereo not given)	6	/	6.5	8	10	/	/
63	O=c1cc[nH]c2cc(C(F)(F)F)ccc12	-4	-5	-2.1	-8	-8	-12	7648
64	CC/C(=N\Nc1nncc2ccccc12)c1ccc(F)cc1	/	-1	/	/	/	-39	5202
65	CCO[C@H]1OC(C(=O)O)=C[C@@H](c2ccc(C(F)(F)F)cc2)[C@@H]1CCCO	/	-2	/	/	/	-15	3415
66	CCOc1ccccc1OCC(=O)NNC(=S)NC1CCCCC1	0	-4	5.6	-2	0	-50	4786
67	CC(=NNC(=S)NCc1ccccc1)c1ccc2ccccc2c1OC(F)F	22	/	-3.8	14	7	/	/
68	CCN(CC(=O)Nc1ccc(NC(C)=O)cc1)CC(=O)Nc1cc(C)on1	1	/	4.5	7	-1	-7	4085
69	COc1ccccc1CNC(=O)COc1ccc(S(=O)(=O)N2CCOCC2)cc1	1	-1	0.0	-2	3	-12	?
70	CCOc1cc(N2CCOCC2)c(OCC)cc1NC(=O)Cc1cn2ccsc2n1	25	-8	28	-5	-2	-15	3132
71	Cc1cccc(C)c1N1CCN(S(=O)(=O)c2ccc(F)cc2)CC1	47	2	3.6	/	/	-4	5299
72	N#Cc1c(N)nc2c3c(sc(=N)c2c1N)NC(=O)CC3c1ccccc1Cl (stereo not given)	-24	-3	-3.2	11	-4	-5	9628
73	Cc1ccc(NC(=O)Cn2cc(C=O)c3ccccc32)cc1C	-1	7	-0.5	7	5	-22	3460
74	Cc1ccc(C)c(C(=O)CCC(=O)Nc2ccc(F)cc2)c1	-1	-4	4.1	5	6	0	/
75	CCc1cccc(C)c1NC(=O)Cn1c(NCCO)nc2ccccc21	8	-13	-1.3	5	1	-8	2000
76	Cc1cc(Cl)ccc1Oc1nc(-c2ccccc2)ncc1S(C)(=O)=O	-8	-6	5.1	/	/	-21	2585
77	CCC1(CC)C(=O)C2=C3C1[C@H](C(=O)OC)CC(C(=O)OC)C[C@H]3n1c(=O)n(C)c(=O)n1[C@H]2C (stereo not given in full)	/	5	/	/	/	-19	2855
78	COc1cc(S(=O)(=O)N2CCOCC2)ccc1NC(=O)COc1ccc(N(C)S(=O)(=O)c2ccc(C)cc2)cc1	-11	-7	-0.5	-6	9	-19	4521
79	CC1CN(C(=O)/C(C#N)=C2\N=C(NC(=O)c3ccc(F)cc3)c3ccccc32)CC(C)O1 (stereo not given)	7	-1	2.6	0	2	/	6317
80	Cc1ccc(C(=O)CSc2nnc(-c3snnc3C)n2C2CC2)cc1	-22	6	2.9	14	5	-16	3942
81	Cc1cc(NS(=O)(=O)c2ccc(NC(=O)COc3ccc(Br)cc3)cc2)nc(C)n1	-2	-6	-0.8	-6	-1	-5	4529
82	COC(=O)[C@]1(Cc2ccccc2)N[C@H](c2ccc(SC3CCCCC3)c(OC)c2)[C@@H]2C(=O)N(C)C(=O)[C@@H]21	-9	/	-14	4	2	27	3925
83	Cc1ccc(CNC(=O)C2(NC(=O)Nc3ccc(C)cc3)CCCCC2)cc1	82	1	-2.2	-7	-2	-20	8217
84	Cn1c(=O)oc2cc(S(=O)(=O)N3CCC(C(=O)N4CCN(c5ccccc5)CC4)CC3)ccc21	8	/	1.3	-1	2	-26	5211
85	Cc1ccc(Cn2cc(C(=O)c3ccc(F)cc3)c(=O)c3cc4c(cc32)OCCO4)cc1	-11	-5	3.3	/	/	16	6225
86	CCSc1ccccc1C(=O)Nc1cccc(OC)c1	1	4	0.5	-8	1	-33	10012
87	COCc1cc(=O)n2[nH]c(C)cc2n1	-1	8	-1.0	-2	1	-14	3216

Profiles, looked up by structure. Values in the order: ugtP null kill | BJeLR viability | RN4220 kill | Mtb hypoxia inh | Mtb hypoxia inh growth | PrP 5UTR inh | Autofluor counter
COC(=O)[C@]1(Cc2ccccc2)N[C@H](c2ccc(SC3CCCCC3)c(OC)c2)[C@@H]2C(=O)N(C)C(=O)[C@@H]21 in the list: -9 | / | -14 | 4 | 2 | 27 | 3925
Cc1cc(NS(=O)(=O)c2ccc(NC(=O)COc3ccc(Br)cc3)cc2)nc(C)n1 in the list: -2 | -6 | -0.8 | -6 | -1 | -5 | 4529
CCSc1ccccc1C(=O)Nc1cccc(OC)c1 in the list: 1 | 4 | 0.5 | -8 | 1 | -33 | 10012
